Mtb bLac sens = beta-lactam sensitization of Mtb H37Rv; M. tuberculosis H37Rv growth with meropenem, percent inhibition; hits of this screen are not shown here; inhibition, % at 25 µM; 330,000 compounds, 0.27% hits;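 active means about 74% or more and at least 40 points above the plate without the antibiotic, then above 30% in a dose series; inconclusive means first-round hits that could not be retested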;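 further: growth measured after seven days incubation then overnight dye step; 0% = bacteria only wells and 100% = bacteria with antibiotic; twin plates without the antibiotic show which effects depend on it; some results filed as inactive read as strong as hits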
* marks the source's active call; other numbers are inactive results; u = inconclusive. The list is partial, so the mix of outcomes need not match the whole.

SMILES | Mtb bLac sens
CC1CC(C)CN(C(=O)COC(=O)COc2ccc(C#N)cc2)C1 (stereo not given) | -2
COCCN(CC(=O)Nc1cccc(C)c1C)C(=O)c1cc2ccccc2cc1OC | -6
CC(C)(C)[C@H]1COC(=O)[C@@H](NC(=O)OCC2c3ccccc3-c3ccccc32)C/C=C\C[C@@H](CC(=O)N[C@@H](CO)Cc2ccccc2)C(=O)N1 | 97
O=C(NCc1ccc(Cl)c(Cl)c1)C1CCCC1 | 5
CC1CC(C)CN(CC(=O)Nc2cc(S(=O)(=O)N3CCOCC3)ccc2N2CCCC2)C1 (stereo not given) | -6
C[C@H]1CN([C@@H](C)CO)C(=O)c2cccc(NS(=O)(=O)c3ccc(F)cc3)c2O[C@H]1CN(C)Cc1ccc(Cl)c(Cl)c1 | -5
Cc1ccc(C(=O)N2CCCC(Nc3cccc(F)c3)C2)cc1N1CCNC1=O (stereo not given) | u
O=C1C=C(c2ccc(-c3ccccc3)cc2)C[C@@H](c2ccc(Cl)cc2)C1 | 1
COC(=O)C1CCN(CC(=O)NC(=O)Nc2ccccc2F)CC1 | 5
C[C@@H]1CN([C@@H](C)CO)C(=O)Cc2cc(NC(=O)Nc3cccc4ccccc34)ccc2O[C@@H]1CN(C)Cc1ccc(C(F)(F)F)cc1 | -7
CCCCN(C(=O)CCCc1nc2ccccc2c(=O)[nH]1)c1c(N)n(CC(C)C)c(=O)[nH]c1=O | 1
Cc1ccc(S(=O)(=O)Nc2ccc3c(c2)C(=O)N([C@H](C)CO)C[C@H](C)[C@@H](CN(C)C(=O)Nc2ccc(C(F)(F)F)cc2)O3)cc1 | 7
O=C(CN1C(=O)c2ccccc2C1=O)NC1CCC(O)CC1 (stereo not given) | -1
O=C(Nc1ccc2oc(-c3ccncc3)nc2c1)c1ccco1 | 5
CN(Cc1cccs1)C(=O)c1cc(S(=O)(=O)N2CCOCC2)ccc1F | -2

Brought forward from above: seven entries; new compounds follow.
SMILES | Mtb bLac sens
COC(=O)C1CCN(CC(=O)NC(=O)Nc2ccccc2F)CC1 | 5
C[C@@H]1CN([C@@H](C)CO)C(=O)Cc2cc(NC(=O)Nc3cccc4ccccc34)ccc2O[C@@H]1CN(C)Cc1ccc(C(F)(F)F)cc1 | -7
CCCCN(C(=O)CCCc1nc2ccccc2c(=O)[nH]1)c1c(N)n(CC(C)C)c(=O)[nH]c1=O | 1
Cc1ccc(S(=O)(=O)Nc2ccc3c(c2)C(=O)N([C@H](C)CO)C[C@H](C)[C@@H](CN(C)C(=O)Nc2ccc(C(F)(F)F)cc2)O3)cc1 | 7
O=C(CN1C(=O)c2ccccc2C1=O)NC1CCC(O)CC1 (stereo not given) | -1
O=C(Nc1ccc2oc(-c3ccncc3)nc2c1)c1ccco1 | 5
CN(Cc1cccs1)C(=O)c1cc(S(=O)(=O)N2CCOCC2)ccc1F | -2
COc1cccc(-c2sc3ccc(OC)cc3c2-c2ccc(OCCN3CCOCC3)cc2)c1 | 55
CN(CC(=O)Nc1cccc(F)c1)C(=O)c1ccccc1Sc1ccccc1C#N | -7
CCCOc1ccc(C(=O)c2ccccc2C(=O)OC2CCOC2=O)cc1OCCC (stereo not given) | -5
CCc1ccccc1NC(=O)CN1CCN(C(=O)c2cccc(-n3cnnn3)c2)CC1 | -4
O=C(NCc1ccc(F)cc1)c1cc(S(=O)(=O)N2CCCCC2)ccc1Cl | -11
CCN(CC(=O)NC1CCS(=O)(=O)C1)c1ccc(S(=O)(=O)N(CC)CC)cc1[N+](=O)[O-] (stereo not given) | -6
c1ccc(-n2ncc3c2ncn2nc(CSc4nc5ccccc5s4)nc32)cc1 | -3
N#Cc1ccccc1S(=O)(=O)N1CCN(C(=O)CN2CCCC2c2cccs2)CC1 (stereo not given) | 3
CC(=O)NC(c1ccco1)c1cc(F)c2cccnc2c1O (stereo not given) | 16
COc1ccc(S(=O)(=O)Nc2ccc3c(c2)CC(=O)N([C@@H](C)CO)C[C@H](C)[C@@H](CN(C)S(=O)(=O)c2ccc(F)cc2)O3)cc1 | -3
CN(CC(=O)Nc1ccc(F)c(F)c1F)C(=O)C1COc2ccccc2O1 (stereo not given) | -7
CCOc1ccc(NC(=S)NC23CC4CC(CC(C4)C2)C3)cc1 | -3
O=C(c1ccc(NS(=O)(=O)c2ccc3[nH]c(=O)[nH]c3c2)cc1)N1CCN(c2ccccc2)CC1 | 8
COc1ccccc1N(CCC#N)C(=S)Nc1ccc(S(=O)(=O)N2CCOCC2)cc1 | -7
NC(=O)C1CCN(c2nc(-c3cccnc3)cs2)CC1 | 7
COc1ccc(CNC(=O)Cn2cnc3c(SC)nc(N)nc32)cc1 | -2
CN(Cc1ccccc1)C(=O)c1ncn(Cc2ccccc2)c1C(=O)N(C)Cc1ccccc1 | -9
COc1ccc(C(=O)NC2CCCc3ccccc32)c(OC)c1OC (stereo not given) | 3
C#CCOCCOCCOCCNc1nc(N2CCN(C(=O)[C@H](CCCCN)n3cc([C@@H](N)C(C)CC)nn3)CC2)nc(N2CCN(C(=O)[C@H](Cc3cc4ccccc4[nH]3)n3cc([C@@H](N)C(C)CC)nn3)CC2)n1 (stereo not given in full) | 23
CCN(C[C@H]1N[C@@](C)(C(=O)OC)[C@H]2C(=O)N(C)C(=O)[C@@H]12)C(=O)Nc1ccc(Cl)cc1 | 1
CCOc1ccc(S(=O)(=O)Nc2cccc(C(=O)NCC(c3ccco3)N3CCCC3)c2)cc1 (stereo not given) | 0
Cc1ccccc1S(=O)(=O)N1CC(C(=O)O)=CC[C@H]1c1ccc(Cl)cc1 | 3
CCN(C(=O)CSc1nnc(-c2ccc(F)cc2)n1C)C1CCS(=O)(=O)C1 (stereo not given) | -7
CCOc1ccc(OCc2ccc(C(=O)Nc3cccnc3)cc2)cc1 | 77
Cc1ccc(C)c(CSC2=NN3CCCC(=O)N=C3S2)c1 | -6
CN(C)CC(NC(=O)c1cccc(S(=O)(=O)Nc2ccc3c(c2)OCO3)c1)c1ccccc1 (stereo not given) | 2
CC1Cc2ccccc2N1C(=O)COC(=O)c1ccc([N+](=O)[O-])o1 (stereo not given) | 100
COc1ccccc1C(=O)COC(=O)C1(C)CC1(Cl)Cl (stereo not given) | -4
Cc1cc(NC(=O)C(C)SCC(=O)N(C)Cc2c(F)cccc2Cl)no1 (stereo not given) | 4
CCCCOC(=O)c1ccccc1C(=O)OCCCC | 5
O=C1N(c2ccccc2C(F)(F)F)O[C@]1(c1ccccc1)C1CCCCC1 | 5
Cc1ccc(S(=O)(=O)NCC(=O)OCC(=O)N2CC(C)OC(C)C2)cc1 (stereo not given) | -4
NC(=O)C1CCN(c2oc(-c3cccs3)nc2S(=O)(=O)c2ccc(Cl)cc2)CC1 | -7
CC(C)(C)OC(=O)C[C@H]1C/C=C\C[C@H](CC(=O)N[C@H](CO)Cc2ccccc2)C(=O)N[C@H](C(C)(C)C)COC1=O | 10
CCOc1ccc(S(=O)(=O)N2CCN(C(=O)c3cc([N+](=O)[O-])ccc3N3CCOCC3)CC2)cc1 | -6
CCOC(=O)NC(=O)CSc1ccc(S(=O)(=O)N2CCCCC2)cn1 | -3
C#CCOCCOCCOCCNc1nc(N2CCN(C(=O)CCCCCCCCCCNC(=O)[C@H]([C@@H](C)CC)n3cc(CCCCCN)nn3)CC2)nc(N2CCN(C(=O)CCCCCCCCCCNC(=O)[C@H](CCCCN)n3cc(CCCC(=O)O)nn3)CC2)n1 | 13
CCCCc1ccc(C(=O)O)nc1 | 49
COc1ccc(C(=O)NC(=O)CSc2n[nH]c(N)n2)cc1 | -7
O=C(NC(=S)Nc1ccccc1O)c1cccnc1 | 94
COc1ccc(S(=O)(=O)Nc2cccc3c2O[C@H](CN(C)C(=O)NC2CCCCC2)[C@@H](C)CN([C@H](C)CO)C3=O)cc1 | 0
Cc1ccc(C(=O)Nc2cccc(S(=O)(=O)N3CCCCC3)c2)cc1[N+](=O)[O-] | -11
CC[C@@]1(C(=O)OC)N[C@H](CN(C)S(=O)(=O)c2ccc(-c3ccccc3)cc2)[C@@H]2C(=O)N(Cc3ccccc3)C(=O)[C@@H]21 | -3
Cc1sc2ccccc2c1CC1=NCCN1 | 2
O=C1C=C(c2cccc(Br)c2)C[C@@H](c2ccc3c(c2)OCO3)C1 | 10
CC1CCc2c(sc(NC(=O)c3ccc(N4C(=O)CCC4=O)cc3)c2C(N)=O)C1 (stereo not given) | -3
CC(C)n1ncc2c(C(=O)NCc3ccccc3CN(C)C)cc(C3CC3)nc21 | 4
COc1ccc(C)cc1NC(=O)C1CCCCN1S(=O)(=O)c1ccccc1 (stereo not given) | 0
COc1ccc(C)cc1NC(=O)COC(=O)c1ccc2c(c1)OCCO2 | 4
Cc1ccc(S(=O)(=O)Nc2cccc3c2O[C@H](CN(C)C(=O)Nc2cccc4ccccc24)[C@H](C)CN([C@H](C)CO)C3=O)cc1 | 0
COc1ccc(OCCCC(=O)ON=C(N)c2ccccc2C)cc1 | 0
COc1ccc2c3c([nH]c2c1)[C@H]1C[C@H]2[C@H](C[C@@H](O)[C@H](OC)[C@H]2C(=O)O)CN1CC3 | 1
COc1ccc(NC(=O)CN2CCN(S(=O)(=O)N(C)C)CC2)cc1 | 3
CCOc1ccc(OCC(=O)OC(C)C(=O)NC2CCCC2)cc1 (stereo not given) | 12
NC(=O)c1ccc(N2CCN(S(=O)(=O)c3cccs3)CC2)c([N+](=O)[O-])c1 | 0
CCOc1ccccc1-c1nnc(CS(=O)(=O)c2ccccc2)o1 | 4
C=CCN1C(=O)C(=O)N(CC(=O)c2ccc3c(c2)CCCC3)C1=O | 4
O=C(NNC(=O)C1CC1)c1cc(=O)[nH]c2ccccc12 | -11
C[C@]12CCC(=O)C[C@@H]1CC[C@@H]1[C@@H]2CC[C@]2(C)[C@@H](O)CC[C@@H]12 | -3
COc1ccc2c(c1)[C@H]1[C@H](CO2)[C@H](c2ccccc2)[C@]2(C)C(=O)N(CC3CCCO3)CC(=O)N12 (stereo not given in full) | 0
(continued)
SMILES | Mtb bLac sens
COc1cc(S(=O)(=O)NCCCn2ccnc2)ccc1F | 3
CC(C)(OC(=O)c1cccs1)c1cc2ccccc2c(=O)o1 | -3
Cc1ccc(NS(=O)(=O)c2cccc(C(=O)Nc3cccnc3)c2)c(C)c1 | -5
Cc1ccc2c(c1)[C@H]1[C@H](CO2)[C@H](c2ccccc2)[C@]2(C)C(=O)Nc3cc(Cl)ccc3C(=O)N12 | 99
O=C(O)C1CC(O)CN1S(=O)(=O)c1ccc2ccccc2c1 (stereo not given) | -2
CC(C)(C)c1ccc(NC(=O)CSc2n[nH]c(=O)n2C2CC2)cc1 | 3
CC(C)[C@H](NS(=O)(=O)c1ccccc1)C(=O)Nc1ccccc1N1CCOCC1 | 3
CN(CC(=O)Nc1cccc(F)c1)C(=O)c1cc(S(=O)(=O)N2CCN(c3ccccc3)CC2)ccc1Cl | 3
COc1ccccc1C(=O)NCC(=O)N1CCN(C/C=C/c2ccccc2)CC1 | 0
O=C(c1cn(Cc2ccccc2)nc1-c1cccnc1)N1CCc2ccccc2C1 | 0
COc1ccccc1C(=O)NCCC(=O)NCc1cccnc1 | 6
O=C(CCNC(=O)c1ccc(Cl)cc1)Nc1cccc(S(=O)(=O)N2CCCCC2)c1 | -4
COc1ccc(-c2c(C#Cc3ccsc3)c3cc(Br)ccc3n2C)cc1 | 10
Cc1ccc(S(=O)(=O)N2CCCCC2)cc1NC(=O)c1cc(=O)[nH]c2ccccc12 | -2
O=C(COC(=O)c1ccc(Br)o1)NCC1CCCCC1 | 30
CN(Cc1ccco1)C(=O)c1ccc(S(=O)(=O)N2CCCCCC2)cc1 | -8
CCc1ccc(C(=O)NNC(=O)c2n[nH]c(=O)c3ccccc23)cc1 | -1
CC(C)(C)OC(=O)C[C@@H]1C/C=C\C[C@H](CC(=O)NCCO)C(=O)N2CCC[C@@H]2COC1=O | -3
CC1Cc2ccccc2N1C(=O)COC(=O)c1ccc(N(C)C)cc1 (stereo not given) | -7
CCCn1c(SCC(=O)NCCCN2CCCC2=O)nc2ccccc2c1=O | 0
Cc1ccc(NS(=O)(=O)c2cccc(C(=O)NCC(c3cccs3)N3CCOCC3)c2)cc1 (stereo not given) | -14
COc1cccc(/C=N/NC(=O)C(=O)N2CCCCCC2)c1O | 0
O=C(CSc1ncn[nH]1)N/N=C/c1ccc(C(F)(F)F)cc1 | -12
CCCCn1c(N)c(N(CC)C(=O)c2ccco2)c(=O)[nH]c1=O | -7
COc1ccc(OCC(=O)N2CCC(Cc3ccccc3)CC2)cc1 | -6
C=CCOC(=O)CCCCCCCC | -14
O=C(CSc1nnc(C2CC2)n1C1CC1)c1ccccc1F | 1
Cc1cccc(CCN2C(Nc3ccccc3)=NC[C@@H]2C)c1 | -4
CCOc1ccc(S(=O)(=O)N2CCN(C(=O)Cc3ccc(S(=O)(=O)N4CCOCC4)s3)CC2)cc1 | -3
O=C(CCCN1CCC(n2c(=O)[nH]c3ccccc32)CC1)c1ccc(F)cc1 | -3

3 records drawn at random from the list so far:
SMILES | Mtb bLac sens
COc1ccc(-c2c(C#Cc3ccsc3)c3cc(Br)ccc3n2C)cc1 | 10
CCN(C(=O)CSc1nnc(-c2ccc(F)cc2)n1C)C1CCS(=O)(=O)C1 (stereo not given) | -7
O=C1N(c2ccccc2C(F)(F)F)O[C@]1(c1ccccc1)C1CCCCC1 | 5

Next part
SMILES | Mtb bLac sens
CCN(CC)C(=O)[C@H]1CC(CC(=O)NCc2cccc(C(F)(F)F)c2)C(=O)N2CCc3c([nH]c4ccccc34)[C@]12C (stereo not given in full) | -4
COc1ccccc1-c1sc2cc3c(cc2c1-c1ccc(O)cc1)OCO3 | 3
NS(=O)(=O)c1cccc(NC(=O)CSc2nnc(C3CC3)n2-c2ccccc2)c1 | 1
CN(CC(=O)Nc1ccc(F)cc1)C(=O)C1CCN(C(=O)Nc2ccccc2)CC1 | -3
CC(C)(C)OC(=O)NC1CNNC1=O (stereo not given) | 8

Screens deposited in PubChem by Southern Research Specialized Biocontainment Screening Center.
